Cruzain Triton = inhibitors of Trypanosoma cruzi cruzain with detergent | 200,000 compounds, 0.43% hits | P25779 | purified cruzain, Z-FR-AMC fluorescence, 0.01% Triton | Potency, µM, inactives show max response, negative = inhibition, actives largely listed as inhibitors; active means well fitted curve in the direction sought with a large enough effect; inconclusive means small, poorly fitted or top-dose-only effect, or another doubt; inactive means no such curve, though single readings can be large; an effect the other way counts as inactive or inconclusive;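 further: plate controls were neutral wells for no effect and buffer without enzyme for full effect; nearly all actives have a fitted effect of over 40% in size; top concentration of the series not given in the record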
Target sequence (P25779 123-467 limits assumed): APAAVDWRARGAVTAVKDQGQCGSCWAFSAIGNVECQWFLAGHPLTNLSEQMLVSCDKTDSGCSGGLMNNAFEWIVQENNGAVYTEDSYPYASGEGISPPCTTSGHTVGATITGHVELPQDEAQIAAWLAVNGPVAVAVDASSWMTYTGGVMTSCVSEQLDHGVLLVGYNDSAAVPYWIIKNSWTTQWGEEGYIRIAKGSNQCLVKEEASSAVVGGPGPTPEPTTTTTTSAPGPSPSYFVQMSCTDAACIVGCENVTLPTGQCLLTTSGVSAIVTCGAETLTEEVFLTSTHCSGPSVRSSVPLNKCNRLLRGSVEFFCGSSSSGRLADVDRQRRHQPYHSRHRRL
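Enzyme 1.5 nM, Z-FR-AMC 2 uM, NaOAc 100 mM pH 5.5, DTT 5 mM, Triton X-100 0.01%; 15 min RT compound preincubation; kinetic ex360/em450, 60 s delta.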
StopGo reporter = FMDV 2A StopGo reporter, luciferase signal | AID 1159524 | 410,000 compounds, 1.2% hits | human cells with a luciferase reporter of 2A StopGo recoding; control for the full effect not named in the record | Potency, µM (highest dose often 57.9 µM), without a hit: top-dose signal change, negative = less light; active = well fitted falling curve with a large enough effect; inconclusive = small, poorly fitted or top-dose-only effect; inactive = no such curve, though single readings can be large or run the other way; tested in HEK293T cells; further: on the % scale 0 is the no-effect control and ±100 the full control effect; nearly all actives have a fitted effect of over 45% in size; luciferase light after 4 h
Cruzain inh noDet = blocks cruzain activity in detergent-free assay; P25779; purified cruzain, Z-FR-AMC fluorescence, no detergent; Potency, µM, inactives show max response, negative = inhibition, actives largely listed as inhibitors; 200,000 compounds, 2.3% hits; AID 1476; active means well fitted curve in the direction sought with a large enough effect; inconclusive means small, poorly fitted or top-dose-only effect, or another doubt; inactive means no such curve, though single readings can be large; an effect the other way counts as inactive or inconclusive;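 further: plate controls were enzyme without inhibitor for no effect and buffer without enzyme for full effect; nearly all actives have a fitted effect of over 40% in size; top concentration of the series not given in the record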
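Detergent-free condition (0.00005% Triton X-100) in acetate buffer pH 5.5 with DTT. 1.5 nM enzyme and compound were pre-mixed 15 min, then 2 uM Z-FR-AMC substrate added; reaction progress from fluorescence change between first and third reads (60 s).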
SARS PLP yeast = inhibitors of SARS-CoV papain-like protease in yeast; S. cerevisiae expressing SARS-CoV PLpro, growth rescue; control for the full effect not named in the record; Potency, µM (series often up to 32.9 µM), without a hit: at the highest dose activity, positive = growth rescue; 330,000 compounds, 0.19% hits; AID 485353; further: 0% is about no effect; nearly all actives have a fitted effect of over 55% in size; growth read by luminescence after 48 h
Marburg entry inh = Marburg virus entry inhibition | Marburg virus pseudotyped entry inhibition, cell reporter; control for the full effect not named in the record; about a third of the inactives were read at about 46 µM | Potency, µM (highest dose often 37.8 µM), inactives show at the highest dose activity change, negative = inhibition, usual class: inhibitors | 300,000 compounds, 1.8% hits | AID 540276; active = well fitted inhibition curve with a large enough effect; inconclusive = small, poorly fitted or top-dose-only effect, or effect the other way; inactive = flat fitted curve, though single readings scatter; tested in HEK293 cells; about a fifth of its hits are not listed in these tables; further: on the % scale 0 is the no-effect control and ±100 the full control effect; luciferase read-out
Lassa entry inh = Lassa virus entry inhibition; Lassa virus pseudotype entry inhibition, cell reporter; control for the full effect not named in the record; Potency, µM (titrated, usually from 37.9 µM), without a hit: at the highest dose activity change, negative = inhibition, hits mostly inhibitors; 300,000 compounds, 1.2% hits; active means well fitted inhibition curve with a large enough effect; inconclusive means small, poorly fitted or top-dose-only effect, or effect the other way; inactive means flat fitted curve, though single readings scatter; tested in HEK293 cells; further: on the % scale 0 is the no-effect control and ±100 the full control effect; nearly all actives have a fitted effect of over 50% in size; luciferase read-out
NS1 function inh = influenza NS1 inhibition | S. cerevisiae slowed by influenza A NS1, growth recovery by OD600 | 270,000 compounds, 0.4% hits | Potency, µM (series often up to 46.1 µM), inactives show at the top dose activity, positive = more growth; further: actives are rising curves; nearly all actives have a fitted effect of over 50% in size
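Compounds were scored for reversing the slow growth caused by influenza A NS1 in S. cerevisiae, measured by optical density at 600 nm. Assay medium contained 2% galactose at pH 6.0; NS1-free yeast of the same strain were the positive control.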
RE007 growth inh = less growth of the S. pombe RE007 Vpr strain; S. pombe RE007 Vpr strain, BacTiter-Glo ATP luminescence, 24 h; control for the full effect not named in the record; 360,000 compounds, 0.21% hits; Potency, µM (top dose mostly 92.2 µM), inactives show top-dose activity change, negative = less growth; active = well fitted falling curve with a large enough effect; inconclusive = small, poorly fitted or top-dose-only effect; inactive = no such curve, though single readings can be large or run the other way;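 further: on the % scale 0 is the no-effect control and ±100 the full control effect; nearly all actives have a fitted effect of over 50% in size; the assay follows cell death caused by Vpr and the record does not say whether a fall means rescue or toxicity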
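Fission yeast strain RE007, carrying one chromosomally integrated HIV-1 vpr copy, was seeded at OD 0.01 in PMG+AL medium with 23 nL pinned compound. After 24 h at 30 °C and 99% humidity, viability was read by BacTiter-Glo luminescence.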
An asterisk follows results filed as active; ? = inconclusive; nt = not tested or not shown; & = joins results of further samples; [ ] = dose if it differs, or a comment. Unless noted, the call rests on the fitted dose curve; in most records, active means well fitted rising curve with a large enough effect; inconclusive means small, poorly fitted or top-dose-only effect; inactive means no such curve, though single readings can be large or run the other way. Potency means the concentration at half of the fitted maximal effect.

SMILES | Cruzain Triton | StopGo reporter | Cruzain inh noDet | SARS PLP yeast | Marburg entry inh | Lassa entry inh | NS1 function inh | RE007 growth inh
Cc1cc([N+](=O)[O-])nn1CCCC(=O)Nc1cc(Cl)ccc1Cl | nt | -16.0% | nt | -2.6% | ? | -20.0%[46.1 µM] | nt | 8.2%
CCN1CCN(Cc2ccc(OCc3ccccc3)c(OC)c2)CC1 | 0.7% | nt | -16.6% | -4.1% | -5.2% | 10.6% | -5.3% | 5.3%
COc1ccc2cc(CNc3ccc(C)cc3)c(=O)n(CC(=O)Nc3cccc(Cl)c3C)c2c1 | 0.2% | -2.9% | 4.4% | nt | nt | -15.5%[46.1 µM] | nt | nt
Cc1nn(C)c(C(=O)Nc2cccc(CN3CCOCC3)c2)c1Br | -0.7% | 0.0% | -3.0% | -2.2% | 11.8% | ? | 3.6% | 10.6%
NC(=O)CC(NC(=O)Cc1ccc(Cl)cc1)c1ccc(N2CCN(c3ccccn3)CC2)c([N+](=O)[O-])c1 (stereo not drawn) | nt | -17.6% | nt | 2.5% | nt | nt | 4.7% | 4.5%
CCCn1c(SC2C(=O)CC(C)(C)CC2=O)nc2c1c(=O)n(C)c(=O)n2C | -6.9% | nt | 3.5% | -18.3% | 8.5% | 2.4% | -7.3% | 11.0%
Cc1c(N/C=C/C(=O)c2ccc(Cl)cc2)c(=O)n(-c2ccccc2)n1C | -7.2% | nt | -3.6% | -8.4% | 0.5% | ? | -188.8% | -23.7%
CC(C)OP(=O)(OC(C)C)C1(O)C(=O)Nc2ccccc21 (stereo not drawn) | 0.8% | -16.5% | 4.1% | -0.9% | -4.8% | 19.0% | 11.0% | -1.6%
Cc1ccccc1NC(=O)Cn1c(CCC(=O)O)ccc1-c1cccs1 | nt | -25.0% | nt | -1.8% | 0.1%[46.1 µM] | -18.6% | 12.0% | 7.6%
CCOc1ccc(OCC)c(NC(=O)CCCN2C(=O)c3cccnc3C2=O)c1 | 6.9% | 14.2% | 1.8% | -1.0% | 3.6% | -0.8% | -1.7% | 7.7%
CS(=O)(=O)N(Cc1ccccc1)c1ccc(C(=O)NCCSCc2ccco2)cc1 | -5.8% | -3.1% | 8.6% | -0.5% | -27.4% | ? | 8.1% | -3.1%
COc1ccc(NC(=O)N2CCc3c(sc4c3CCCC4)C2c2ccc(F)cc2)cc1 (stereo not drawn) | -1.9% | -12.0% | ? | nt | nt | -24.6%[46.1 µM] | nt | nt
Cc1cc(C)n(-c2ccc3nnc(C)n3n2)n1 | nt | 0.5% | nt | 2.6% | 2.7% | 5.9% | 4.9% | -3.0%
CCCCN(CCCC)S(=O)(=O)c1ccc2oc(C(=O)NCc3ccc(C)cc3)c(C)c2c1 | 1.3% | -24.1% | 7.7% | nt | nt | -1.3%[46.1 µM] | nt | nt
CCN(c1ccccc1)S(=O)(=O)c1ccc(OC)c(NC(=O)c2ccccc2OC)c1 | nt | -7.0% | nt | -3.8% | 17.9% | -11.7% | nt | -11.1%
CN(C)CCCNC(=S)Nc1ccc(Oc2ccccc2)cc1 | nt | 8.8% | nt | -1.1% | ? | 14.9% | nt | -14.6%
CN1CCN(c2ccc(NC(=O)c3ccc4c(c3)[nH]c(=O)n4Cc3ccc(F)cc3)cc2)CC1 | -6.8% | -24.7% | 9.9% | -0.5% | ? | ? | 4.3% | -12.2%
COc1ccc(NC(=O)c2sc3nc(N4CCOCC4)c4c(c3c2N)CC(C)(C)OC4)cc1 | nt | -13.0% | nt | -1.6% | 12.8%[46.1 µM] | -10.6%[46.1 µM] | 1.5% | -1.5%
CC(=O)OC[C@H]1O[C@H](C/C=N/O[C@@H](C)c2cn([C@H](CO)Cc3ccccc3)nn2)C=C[C@@H]1OC(C)=O | 1.9% | nt | 4.2% | -1.2% | -4.9% | 2.0% | -20.5% | nt
Cc1nc(N2CCN(C(=O)c3ccco3)CC2)[nH]c(=O)c1C | nt | 11.7% | nt | -2.1% | 10.4%[46.1 µM] | 13.8%[46.1 µM] | -5.2% | 1.8%
O=C(CN1c2cccc3cccc(c23)S1(=O)=O)Nc1ccccc1 | nt | -14.9% | nt | -5.3% | ? | 1.3% | nt | 8.5%
N#Cc1ncc(C(F)(F)F)cc1Oc1cccnc1 | nt | 9.9% | nt | 0.0% | 12.3%[46.1 µM] | 14.0%[46.1 µM] | nt | 7.4%
Cc1ccc(-n2c(-c3ccc(Cl)cc3)n[nH]c2=S)c(C)c1 | nt | -6.2% | nt | 12.3% | nt | nt | ? | 16.0%
O=C(CN1CCCCCC1)Nc1ccc([N+](=O)[O-])cc1Cl | nt | -5.0% | nt | 0.4% | -17.0% | 21.2% | 21.6% | -15.7%
C/C(=N\NC(=O)c1nc2ccccn2c1C)c1ccc2c(c1)OCO2 | -1.9% | 33.9%[activator] | -3.4% | 9.9% | ? | 5.8% | 20.5% | nt

(more compounds)
SMILES | Cruzain Triton | StopGo reporter | Cruzain inh noDet | SARS PLP yeast | Marburg entry inh | Lassa entry inh | NS1 function inh | RE007 growth inh
CCc1ccc(C(c2ccccc2)c2c(C)[nH]c3ccccc23)s1 (stereo not drawn) | -1.3% | -29.0% | -7.9% | nt | nt | 3.8%[46.1 µM] | nt | nt
COc1cccc(C(=O)CSc2nnnn2C)c1 | 1.9% | 25.6% | 3.7% | 1.9% | -0.4%[46.1 µM] | 5.4% | -3.4% | -14.0%
O=C(CCCn1c(SCC(=O)c2ccc(F)cc2)nc2ccccc2c1=O)NCc1ccccc1 | 1.7% | -6.4% | -17.7% | 4.7% | ? | -5.6% | 15.7% | 6.3%[3.69 µM]
CN(C1CCCCC1)S(=O)(=O)c1ccc2[nH]c(=O)oc2c1 | nt | -1.8% | nt | 1.1% | -8.2% | 17.3% | 1.6% | 47.5%
CCN(CC)S(=O)(=O)c1ccc(C)c(NC(=S)Nc2cccc(S(=O)(=O)N3CCCCCC3)c2)c1 | -7.2% | ? | 7.3% | 4.7% | ? | ? | 21.0% | -15.5%
Cc1ccc(C)c(/C=C(\C(=O)O)c2ccc(S(=O)(=O)N3CCCCC3)s2)c1 | nt | 6.1% | nt | -0.2% | -27.2%[46.1 µM] | 3.4% | nt | -16.8%
COc1ccc(O)c(/C=N/NC(=O)c2ccc(OCc3cccc(Br)c3)cc2)c1 | -3.8% | -20.8% | 7.94µM* | -3.9% | ? | ? | 2.0% | -4.3%
COc1ccc2[nH]c(C)c(CCN3C(=O)C4C5C=CC(C5)C4C3=O)c2c1 (stereo not drawn) | 3.1% | -14.0% | -9.0% | -3.8% | nt | nt | -3.2% | 3.1%
COc1ccc(F)cc1CN1CCN(C(=O)CCC(=O)Nc2nnc(C3CCCCC3)s2)CC1 | nt | -19.1% | nt | 2.5% | -3.4%[46.1 µM] | ? | -10.3% | -12.1%
C/C=C/c1ccc(OC(C)=O)c(OC)c1 | -1.2% | -11.0% | -5.0% | -19.4% | 3.8% | -5.2% | -2.7% | -13.5%
Cc1ccc2c(c1)-c1c(cnn1CC(=O)Nc1ccccc1N1CCN(C)CC1)CO2 | -2.5% | -21.3% | 9.8% | 1.0% | 9.2µM* | ? | -12.8% | 14.5%
CCOc1cc(N2CCOCC2)c(OCC)cc1NC(=O)COC(=O)CCOc1cc(C)ccc1C | nt | -20.7% | nt | 1.6% | -14.6% | -9.9% | nt | -16.4%
CCOc1ccc(C(=O)NC(=S)Nc2cc(C)ccn2)cc1[N+](=O)[O-] | -2.4% | -13.7% | 7.1% | -6.6% | 4.5% | nt | -9.0% | -6.5%
CCC(Oc1ccc(Br)cc1)C(=O)N1CCN(c2ncccn2)CC1 (stereo not drawn) | nt | 0.0% | nt | -4.2% | -6.0% | ? | -23.3% | -4.1%
COc1ccc(NS(=O)(=O)c2cc(NC(=O)CCSc3ccccc3)ccc2OC)cc1 | -5.4% | 23.7% | -0.1% | 11.2% | ? | ? | ? | 14.8%
Cc1cccnc1NC(=O)CN1C(=O)NC(C)(c2ccc3ccccc3c2)C1=O (stereo not drawn) | nt | -16.9% | nt | -2.3% | 0.5% | -0.8% | nt | 4.3%
COc1ccc(Nc2ncnc3c2cnn3-c2ccc(C)cc2)cc1Cl | 3.8% | -3.8% | 8.2% | nt | nt | 20.1%[46.1 µM] | nt | nt
CCOc1ccccc1Nc1sc(C(=O)c2ccc(Cl)cc2)c(N)c1S(=O)(=O)c1ccccc1 | 0.8% | -19.5% | 3.16µM* | nt | nt | ? | nt | nt
O=C(/C=C/c1ccco1)NC(=S)Nc1ccccc1N1CCOCC1 | -5.5% | ? | -15.8% | 19.3% | -27.3% | -28.8% | -120.5% | 13.0%
CCCc1cc(-c2n[nH]c(=S)n2-c2cccc(C)c2)cs1 | nt | 3.5% | nt | -2.3% | ? | 1.1% | 2.5% | -1.5%
CCOc1ccc(CN(Cc2ccco2)S(=O)(=O)c2ccc(-n3cnnn3)c(OC)c2)cc1 | -4.2% | -15.7% | ? | -11.6% | ? | ? | -11.1% | -2.3%
COc1cccc(-c2nn(C)c3sc(C(=O)Nc4ccc5c(c4)OCCO5)cc23)c1 | -3.8% | 26.4% | -23.5% | -0.8% | 0.5% | -6.6% | -8.6% | 3.6%
Nc1cccc(NC(=O)c2ccco2)c1 | nt | 17.8% | nt | 1.2% | ? | 22.1%[46.1 µM] | 5.0% | 5.6%
COC(=O)C(OC(=O)c1ccc(OC)cc1)C(=O)OC | -0.9% | 7.7% | -3.7% | -19.2% | -0.2% | -9.2% | -3.4% | 7.0%
Cc1ccc(-c2nc3[nH]c(=O)cc(NC(=O)c4cccs4)n3n2)cc1 | nt | -6.5% | nt | 1.3% | nt | nt | -0.1% | 8.4%
COc1cc2c(cc1NC(=O)CSc1nnc(Cc3cccs3)n1C)oc1ccccc12 | -2.2% | -7.4% | 8.1% | -6.4% | -29.6%&-29.6% | 4.1% | -82.8% | -6.2%
CCc1ccc(OCC(=O)NNCC(=O)Nc2ccc(OC)cc2)cc1 | nt | -15.3% | nt | -0.7% | 25.5% | ? | nt | 10.8%
Cc1noc(C)c1CN1C(=O)NC(Cc2ccccc2)(Cc2ccccc2)C1=O | 12.5% | -4.5% | 12.1% | -1.4% | -13.2%[46.1 µM] | 3.1% | -5.7% | 5.3%
CCCC/C(=N\NC(=O)c1ccc(Br)o1)c1ccccc1 | -4.2% | -4.8% | -14.2% | -5.8% | 4.7% | ? | -0.8% | -10.1%

Bioassay records as filed in PubChem.
